Compound activity as filed in PubChem.
gsp antag = qHTS for Antagonists of gsp, the Etiologic Mutation Responsible for Fibrous Dysplasia/McCune-Albright Syndrome: qHTS | AID 624288, 2012 | Potency, µM (series often up to 76.9 µM), for inactives: at the top dose activity change, negative = inhibition, actives largely listed as inhibitors | gsp-mutant cells, cAMP HTRF, 30 min; control for the full effect not named in the record | hit rate 0.4% among 340,000; active = falling curve of any shape with a large fitted effect; inconclusive = falling curve, mostly with a smaller effect; inactive = flat or rising curve; cell line not stated here;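 also: intracellular cAMP measured with PDE inhibitor Ro 20-1724 present during compound exposure; potency is read from the fitted curve at half-maximal effect; % is scaled to controls: 0 for no effect and ±100 for the full control effect; nearly all actives have a fitted effect of over 65% in size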
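HTRF cAMP measurement after 30 min RT detection following 30 min, 37C compound treatment alongside […] (added as 300 uM solution) in G418-selected cells seeded at 2000/well and grown 16–24 h.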
TRPV1 potentiator = HTS Assay for Compounds that Act as Potentiators of the Vanilloid Receptor 1; potentiation, % at 8.33 µM; hit rate 0.02% among 320,000; Transient receptor potential cation channel subfamily V member 1 (Homo sapiens), Q8NER1; TRPV1-expressing cells, Fluo-8 calcium influx, capsaicin EC20 potentiation; host cell line not named in the record; control for the full effect not named in the record; active means potentiation above 80%; inconclusive means 30% to 80%; inactive means below 30%; also: 0% is about no effect
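Fluo-8 calcium influx in TRPV1-expressing cells, kinetic read (ex 480/em 520 nm). Compound added and read 3 min for agonist activity, followed by capsaicin at EC20 final and 2 min further read for enhancement.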
Menin MLL FP FL = qHTS Assay for Inhibitors Targeting the Menin-MLL Interaction in MLL Related Leukemias: Competition With Fluorescein Labeled MLL-derived Peptide; FP activity change, % at 61.4 µM; 290,000 tested, under 10 active; Fluorescence polarization, fluorescein-MLL peptide displacement from menin; inconclusive = falling polarisation curve, or a change in total fluorescence; inactive = total fluorescence flat and polarisation flat or rising; no compound was filed as active; the % refers to the polarisation; negative = inhibition;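 also: % of control where 0% means no effect; inhibitors lower the polarisation; unlabelled MLL peptide was the positive control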
Sfp inh = qHTS Assay for Inhibitors of Bacillus subtilis Sfp phosphopantetheinyl transferase (PPTase). Biochemical Sfp PPTase activity, qHTS. Potency, µM, for inactives: max response, negative = inhibition, hits mostly inhibitors. hit rate 3.5% among 310,000; active = well fitted inhibition curve with a large enough effect; inconclusive = small, poorly fitted or top-dose-only effect, or another doubt; inactive = no such curve, though single readings can be large or run the other way;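 also: the enzyme is Sfp with the accession as filed and its product quenches rhodamine fluorescence; potency is read from the fitted curve at half-maximal effect; 0% = enzyme reaction without inhibitor and -100% = no enzyme wells; top concentration of the series not given in the record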
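Fluorescence-quenching assay: 15 nM Sfp-PPTase preincubated 15 min at room temperature with compound, then 5 uM rhodamine-CoA and 12.5 uM BHQ-2-labelled YbbR peptide added. Fluorescence (ex 525/em 598 nm) read at start and after 30 min; difference gives rate.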
gsp ag = qHTS for Agonist of gsp, the Etiologic Mutation Responsible for Fibrous Dysplasia/McCune-Albright Syndrome: qHTS; gsp mutant cells, cAMP HTRF, 30 min; control for the full effect not named in the record; Potency, µM (titrated, usually from 76.9 µM), without a hit: at the highest dose activation (cAMP increase), most hits filed as activators; hit rate 0.13% among 340,000; AID 624287, 2012; active = well fitted activation curve with a large enough effect; inconclusive = small, poorly fitted or top-dose-only effect, or another doubt; inactive = no such curve, though single readings can be large or run the other way; cell line not stated here;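 also: phosphodiesterase inhibitor Ro 20-1724 added with compounds to block cAMP breakdown; potency is read from the fitted curve at half-maximal effect; nearly all actives have a fitted effect of over 60% in size; about a fifth of the inactives were tested at one dose only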
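Cells stably selected in G418 were plated at 2000/well, grown 16-24 hr, then given compounds in DMSO with the PDE inhibitor […] (300 uM solution added) for 30 min at 37C; cAMP was read by HTRF.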
ClpP mod = qHTS Assay for Activators of ClpP; ATP-dependent Clp protease proteolytic subunit (Bacillus subtilis (strain 168)), P80244; Potency, µM (titrated, usually from 57.5 µM), for the others: top-dose activity change, negative = active; AID 651965, 2013; purified B. subtilis ClpP, FRET peptide cleavage, 20 min; hit rate 1.9% among 340,000; active = well fitted falling curve with a large enough effect; inconclusive = small, poorly fitted or top-dose-only effect; inactive = no such curve, though single readings can be large or run the other way; also: potency is read from the fitted curve at half-maximal effect; the source files actives as falling curves though it sought activators and does not explain the sign; nearly all actives have a fitted effect of over 65% in size; many hits overshoot -100%
Target sequence (P80244 whole entry, looked up): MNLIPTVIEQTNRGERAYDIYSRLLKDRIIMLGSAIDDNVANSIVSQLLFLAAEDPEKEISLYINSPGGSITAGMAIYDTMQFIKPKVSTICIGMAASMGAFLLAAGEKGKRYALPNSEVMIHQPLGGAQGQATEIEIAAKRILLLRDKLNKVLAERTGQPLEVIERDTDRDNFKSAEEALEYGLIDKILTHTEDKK
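FRET quenching reversal measured ClpP activation: 10 microg/mL B. subtilis ClpP at pH 8 with the FRET-FV decapeptide, read at 430 nm after 320 nm excitation. The 20-min minus 0-min signal was scaled between DMSO/no-enzyme wells and ADEP (5.8 microM final).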
D2 potentiator = Beta-Arrestin HTS for Positive Allosteric Modulators of the Human D2 Dopamine Receptor: Potentiators. D(2) dopamine receptor (Homo sapiens), P14416. DiscoveRx D2 beta-arrestin cells, luminescence, 90 min; 100% = 57 uM dopamine signal. potentiation, % (test concentration not listed). hit rate 0.23% among 360,000. AID 624464, 2012; active = potentiation of 50% or more; inconclusive = 30% to 50%; inactive = 30% or less;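 also: compound concentration not given in the record; tested on top of an EC20 dose of dopamine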
Target sequence (P14416 whole entry, looked up): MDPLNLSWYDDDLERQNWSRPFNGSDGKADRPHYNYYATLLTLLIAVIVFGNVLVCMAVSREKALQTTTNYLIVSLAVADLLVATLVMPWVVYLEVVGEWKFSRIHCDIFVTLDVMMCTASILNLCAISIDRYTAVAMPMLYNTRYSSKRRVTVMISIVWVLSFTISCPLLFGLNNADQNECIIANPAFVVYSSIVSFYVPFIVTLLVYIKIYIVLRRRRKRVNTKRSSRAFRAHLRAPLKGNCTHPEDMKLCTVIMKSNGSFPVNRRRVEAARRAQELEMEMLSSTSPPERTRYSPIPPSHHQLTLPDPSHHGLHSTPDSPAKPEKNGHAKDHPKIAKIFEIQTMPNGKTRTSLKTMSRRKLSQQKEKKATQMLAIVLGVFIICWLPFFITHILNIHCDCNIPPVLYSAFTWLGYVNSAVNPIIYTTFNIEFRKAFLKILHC
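D2 cells co-treated with compound plus 50 nM dopamine (EC20) for 90 min at 37 deg C to detect potentiation. Beta-arrestin recruitment was read as enzyme-fragment luminescence after 1 h at ambient temperature. Full response was set by 57 uM dopamine.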
Numbers without * were called inactive; ? = inconclusive; · = no result given; & = joins results of further samples; [ ] = another dose, or the depositor's remark.

Values run as follows: TRPV1 potentiator | Sfp inh | gsp antag | gsp ag | Menin MLL FP FL | ClpP mod | D2 potentiator
CCN(Cc1ccc(C#CCCO)cc1)CC1CCCN(CCc2cccc(F)c2)C1 (stereo unspecified)
  -11.5 | 3.4% | 2.7% | ? | 4.4 | -0.7% | -12.8
Cc1cc(C)cc(NC(=O)c2sc3nc(C)cc(C)c3c2N)c1
  2.2 | 16.9% | -4.1% | ? | -0.1 | 3.6% | -1.5
COCCN1C(=O)c2ccccc2C(C(=O)NCc2ccco2)C1c1c[nH]c2ccccc12 (stereo unspecified)
  6.0 | -3.8% | -8.6%[15.4 µM] | 26.8% | 0.4 | -1.7% | -9.2
CC(C)(C)c1cc(NC(=O)COC(=O)C2CC2)n(-c2ccccc2)n1
  · | 17.2% | -2.4% | -3.3% | 2.3 | -0.1% | 10.3
N#CC1(CCCN2CCCCC2)c2ccccc2CCc2ccccc21
  · | · | 11.6% | 19.0% | · | 0.1% | -27.7
Cc1ccc(S(=O)(=O)n2cnc3ccccc32)cc1
  6.8 | 10.3% | 5.1% | 0.6% | 1.9 | -2.8% | -1.3
COCCNC(=O)c1cccc(OC2CCN(Cc3ccccc3OCCO)CC2)c1
  10.2 | 1.0% | 3.2% | -21.9% | -6.1 | · | -9.6
c1ccc(-n2c(-c3cccs3)nc3nc4ccccc4nc32)cc1
  -2.9 | 9.9% | -8.1% | 4.0% | 1.2 | 5.7% | -3.9
COc1ccccc1C(=O)Nc1c(C(=O)N(CCN(C)C)Cc2ccco2)oc2ccccc12
  16.8 | -10.6% | 9.7% | ? | · | -5.9%&-7.2% | -17.2
N#Cc1c(NC(=O)/C=C/c2ccco2)sc2c1CCCC2
  8.4 | ? | 4.7% | -2.7% | 12.3 | -2.9% | -34.5
COc1cccc(CN(C)Cc2nc3cc(C(F)(F)F)ccc3c(=O)[nH]2)c1
  ? | -1.8% | -2.4% | -19.7%[15.4 µM] | 1.3 | · | -0.7
CC(Oc1ccc(Br)cc1)C(=O)N1CCc2ccccc21 (stereo unspecified)
  6.9 | -9.3% | -9.7% | 9.0% | -0.5 | 0.8% | -15.3
O=C(CNCC1CCCO1)Nc1ccccc1N1CCOCC1 (stereo unspecified)
  -0.1 | ? | 9.5% | 8.4% | -0.4 | -1.0% | 4.6
Cc1nn(-c2ccccc2)c(Cl)c1/C=C/C(=O)c1ccccc1
  -7.3 | ? | -22.3% | -0.4% | 0.6 | -0.3% | -11.2
CCCc1nnc(NC(=O)CCC(=O)Nc2ccc(Br)cc2)s1
  2.0 | -15.4% | 4.2% | -5.7% | · | -2.2% | -15.9
O=C(CC(NCc1ccccn1)C(=O)O)Nc1ccccc1Cl (stereo unspecified)
  -1.4 | ? | 2.6% | 0.8% | 0.1 | · | -1.0
Cn1c(CNC(=O)c2ccccc2)nnc1SCC(=O)N1CCN(c2ccccc2)CC1
  21.8 | 23.9% | 20.0% | 3.8% | -0.3 | 0.8% | -1.1
O=C(CCSc1ccccc1)Nc1nc2c(s1)COc1ccccc1-2
  19.0 | -29.7% | -23.2% | -2.6% | 1.3 | -11.9% | -2.8
Cc1ccc(-c2nnn(C(C)C(=O)N3c4ccccc4CCc4ccccc43)n2)cc1 (stereo unspecified)
  1.2 | 2.4% | -10.8% | 0.0% | 3.2 | -23.9% | -30.0
CC(C)(C)OC(=O)N1CCNc2ccccc2C1
  -3.9 | 11.0% | 9.6% | 14.0% | 0.2 | 0.4% | -36.3
O=C(COC(=O)c1cc(Cl)ccc1O)NCCNC(=O)COC(=O)c1cc(Cl)ccc1O
  5.8 | 10.2% | 0.0% | 0.2%[15.4 µM] | 2.5 | · | 5.3
CC1CCCCN1CCNC(=O)c1ccc2c(c1)N(Cc1cccc(Cl)c1)C(=O)c1ccccc1S2=O (stereo unspecified)
  5.0 | 0.2% | 9.3% | 50.7% | -3.4 | 2.2% | -28.3
COc1ccc(C(=O)NCCNc2ncc(C(F)(F)F)cc2Cl)cc1[N+](=O)[O-]
  -17.2 | 5.3% | -11.5% | 15.0% | · | -0.2% | 2.3
COC(=O)c1cc(OC)c(OC)cc1NCC(=O)Nc1cccc(C(F)(F)F)c1
  17.5 | 13.6% | -18.2% | 17.6%[15.4 µM] | -0.3 | ? | -12.7
Cc1ccc(C(=O)Nc2c(C(=O)NCc3ccco3)cnn2-c2ccccc2)cc1
  -7.5 | -5.7% | -1.2% | -4.9% | 0.5 | 0.7% | -9.7
O=c1c(S(=O)(=O)c2ccc(Cl)cc2)cn(Cc2cccc(F)c2)c2ccc(F)cc12
  9.6 | 25.5% | 10.5% | 12.2% | -1.3 | -15.8% | -7.0
O=C(NCCO)/C(=C/c1ccc2c(c1)OCO2)NC(=O)c1ccc(Br)cc1
  -8.3 | -1.6% | · | -3.8%[15.4 µM] | 1.9 | · | 0.7
Cc1ccccc1S(=O)(=O)Cc1ccc(C(=O)N2CCN(c3ccccc3F)CC2)o1
  12.4 | 3.2% | ? | 18.7% | -5.1 | 1.3% | 10.5
CCCCC(=O)OCC(=O)c1[nH]c(C)c(C(=O)OCC)c1C
  1.5 | -2.1% | -3.6% | 12.2% | 1.2 | -0.2% | 1.2
COC(=O)c1ccccc1NC(=O)CSc1nc(C)cc(C)n1
  -6.3 | -15.4% | 3.7% | 3.6% | 1.9 | · | 7.9
CCc1cc(OCCCCNCc2ccccc2)ccc1Cl
  5.1 | -12.8% | 7.8% | 0.1% | · | -13.1% | -36.4
O=C(CSc1nnc(NC2CCCCC2)s1)N1CCOCC1
  8.7 | · | 9.7% | -34.2%[inhibitor] | · | 1.2% | 0.8
COc1cc(C=O)ccc1OCCSc1ccc(C)cc1
  -8.2 | -0.8% | -12.1% | -70.9%[inhibitor] | -1.3 | -0.7% | -2.4
Cc1ccc(OCCC(=O)OCC(=O)NCCc2ccccc2)cc1
  -0.1 | 12.3% | · | 7.7%[15.4 µM] | 1.6 | · | -4.7
COc1cc(/C=C2\C(=N)N3N=CSC3=NC2=O)ccc1OS(=O)(=O)c1ccccc1
  -9.5 | 7.5% | -10.4% | -14.3% | · | -1.2% | -4.8
CN(CC(=O)N1CCN(c2cccc(Cl)c2)CC1)S(=O)(=O)c1cnc[nH]1
  1.9 | 3.8% | 9.9% | ? | 5.1 | -0.8% | -9.9
COc1ccccc1NC(=O)C1C2CCCCC21 (stereo unspecified)
  -1.2 | 0.9% | 21.5% | 14.9% | 3.3 | 1.5% | -4.6
CC(NC(=O)c1ccccc1)C(=O)NC1CCCc2ccccc21 (stereo unspecified)
  1.3 | · | -8.5% | 38.3%[15.4 µM] | · | -0.7% | 10.7
CNC(=O)C1CC(=O)N(c2ccc(C)cc2)C1 (stereo unspecified)
  -0.1 | 12.3% | 12.1% | -8.9% | 1.4 | -3.1% | -13.4
Cc1ccc(Oc2ccc(NC(=O)CCC(=O)OCC(=O)c3cccs3)cc2)cc1C
  -7.3 | 11.4% | 2.2% | -7.7% | 4.1 | -1.1% | -9.9
CC1(C)NC(=O)N(c2ccccc2Cl)C1(C)NO (stereo unspecified)
  -7.8 | 13.8% | 8.7% | ? | 5.9 | 2.1% | 1.8
Cc1ccc2c(c1)NC(=O)C(CC(=O)NCCCN1CCN(c3cc(Cl)ccc3C)CC1)O2 (stereo unspecified)
  -9.5 | ? | 11.6% | ? | 4.3 | 1.2% | -7.5
CCC(C)c1ccccc1NC(=O)c1cccnc1 (stereo unspecified)
  · | 12.4% | 5.0% | -22.0% | 2.4 | 0.0% | 5.7
Cc1ccc(NC(=S)N2CCC(O)CC2)c(C)c1
  -6.7 | 4.8% | -1.3% | -22.5% | 3.8 | -1.9% | -7.9
COC(=O)c1c(NC(=O)/C=C/c2ccc3c(c2)OCO3)sc(C)c1C
  3.5 | -16.9% | -0.2% | 29.5% | -0.1 | 4.5% | -7.4
COc1ccccc1NCCC#N
  -13.1 | 24.8% | 1.9% | -5.0% | 1.3 | -5.4% | -13.8
CN(C)C(=O)N1CCC(C(=O)N2CCCC(C(=O)c3ccc(C(C)(C)C)cc3)C2)CC1 (stereo unspecified)
  -10.9 | 7.9% | -12.7% | -57.7%[inhibitor] | 1.1 | 2.6% | -2.9
CCOc1ccc(C(=O)C(C)=O)c(OCC)c1
  -9.2 | 23.5% | -1.3% | 26.0% | 3.0 | · | 1.5
Cc1ccc(N(C(=O)CNC(=O)c2ccco2)C(C(=O)NCC2CCCO2)c2ccccc2)cc1C (stereo unspecified)
  8.1 | 5.3% | -5.8% | -8.4%[15.4 µM] | · | · | 12.6
Fc1ccc(CNCc2cccc(Br)c2)cc1
  -1.8 | 12.8% | 17.7% | -8.8% | -6.5 | 1.1% | -42.2
COc1ccc(CSc2nc(O)cc(=O)n2CC(C)C)cc1F
  15.7 | -2.1% | · | -2.4%[15.4 µM] | 1.8 | · | -9.5
CCOc1ccc(NC(=O)COC(=O)CCN2C(=O)C3CC=CCC3C2=O)cc1OCC (stereo unspecified)
  -5.8 | · | ? | 7.1% | · | 1.0% | -14.1
CC1=CC(C)(C)NC(=S)N1c1ccc(C)cc1
  13.7 | 11.1% | 2.3% | 2.3% | 2.1 | 0.0% | -13.8
COc1cccc(N(C(=O)c2ccco2)C(C(=O)NC2CCCC2)c2ccc(N3CCOCC3)cc2)c1 (stereo unspecified)
  18.4 | -2.3% | 0.2% | 10.0% | · | · | -3.4
Cc1onc(-c2ccccc2Cl)c1C(=O)NCc1nc(-c2ccccc2)no1
  2.7 | 89.1µM* | -2.6% | 19.2% | -2.7 | -5.4% | 4.6
O=C(NNC(=O)c1ccccc1F)C1=NN(c2ccccc2)C(=O)CC1
  1.9 | 8.0% | 7.7% | -24.6% | -7.7 | -0.9% | 1.3

Outcome played no part in choosing rows; 5.1% or so of the library scored in one or more.
